# NPYLR7 agonist: mosquito NPYLR7 agonism. HEK293T NPYLR7/Galpha15, GCaMP6s calcium fluorescence. activation, % at 10 µM. hit rate 0.15% among 270,000. AID 1259423; in the data active means activation above about 40%;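 further: 0% = vehicle and 100% = reference agonist at the receptor; some compounds past the cut are filed as inactive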
# NPYLR7 agonist max-min: further read-out of NPYLR7 agonist, marked with its call; activation, %; measured here: Max-Min RFU normalised activation; some inactives read as strong as hits;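 span of the calcium signal over five minutes; 0% = vehicle and 100% = native peptide agonist; compound fluorescence can raise it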
# Active calls of the source: *; & = joins results of further samples. A portion of the library, so the mix of outcomes need not match the whole.
No.	structure	NPYLR7 agonist max-min	NPYLR7 agonist
1	CNc1nc2cnc(Nc3ccc(F)c(Cl)c3)cc2n1Cc1cccnc1	-17	-15
2	COc1ccc2nc(-n3nc(C)cc3NC(=O)c3cc(C)no3)sc2c1	-15	-9
3	CC(C(=O)N(C)C1(C#N)CCCCC1)N1CCN(c2ccccc2)CC1 (stereo not drawn)	4	14
4	COc1ccc(CN2CCNC(=O)C2CC(=O)N2CCC(OC)CC2)cc1OC (stereo not drawn)	4	6
5	COc1ccc(C2(NC(=O)Nc3cccc(C#N)c3)CCCC2)cc1	0	3
6	C#Cc1cccc(NCc2ccccc2)c1	12	23
7	COc1cccc(-n2cc(CN(C)Cc3cn(C)nc3-c3cccc(Cl)c3)cn2)c1	8	9
8	COc1ccc(-c2nnc(SCc3ccc(OC)c(F)c3)o2)c(OC)c1	26	1
9	CCCCOc1ccccc1C1C(C(=O)OC)=C(C)NC2=C1C(=O)CCC2 (stereo not drawn)	-8	-6
10	COc1cc(CNC(=O)c2ccc(-c3cc(-c4ccc(Cl)cc4Cl)[nH]n3)cc2)cc(OC)c1	0	6
11	Cc1noc(NS(=O)(=O)c2c(C)sc3ccc(Cl)cc23)c1C	12	12
12	O=C1NC(=S)N/C1=C/c1ccc(-c2ccccc2C(=O)O)o1	14	3
13	COc1cccc(CNC(=O)C(C)N2CCCCCC2)n1 (stereo not drawn)	1&7	5&9
14	O=C(c1ccc(F)c(O)c1)N1CCCn2nc(C(=O)N3CCCC3)cc2C1	5	8
15	CC(C)(CNC(=O)c1cc2c(s1)CCCCCC2)N1CCOCC1	-3	-5
16	O=C(c1cn(Cc2cccnc2)nn1)N1CCC2CCCCC21 (stereo not drawn)	-3	-1
17	COC(=O)CCCCCCC(=O)N1CC(=O)N2CCc3ccc(F)cc3C2C1 (stereo not drawn)	6	21
18	COCc1nc(N2CCOc3ccc(Cl)cc3C2)c2cnn(C)c2n1	-1	1
19	O=C(CCc1csc(NC(=O)c2ccc[nH]c2=O)n1)NCc1cccs1	-24	-14
20	Cc1nnc(SCc2cc(=O)n3[nH]cnc3n2)s1	-3&23	0&11
21	CSc1nc(N)cc(N)n1	-4	-1
22	O=C(NCCc1nnc2ccc(SCC(=O)N3CCCCCC3)nn12)c1ccccc1	-17	-16
23	COc1ccc(C(=O)NC2CCN(c3ccccc3C(=O)N3CCCC3)CC2)cc1OC	2	2
24	CCCCCN(CC(=O)N1CCc2sccc2C1c1ccc(Cl)cc1Cl)C(=O)c1ccc(F)cc1 (stereo not drawn)	22	13
25	CCCC(C)c1nc(N2CCN(S(=O)(=O)Cc3ccccc3)CC2)c2cnn(-c3ccccc3)c2n1 (stereo not drawn)	8	2
26	CCS(=O)(=O)c1ccc2oc(-c3cccc(NC(=O)Nc4cccc(Cl)c4)c3)nc2c1	17	5
27	Cc1ncsc1CCCn1ccnc1-c1cccc2nonc12	2	7
28	COc1ccsc1C(=O)NC1c2ccccc2CC1O (stereo not drawn)	-6	-4
29	S=c1n(CN2CCOCC2)nc(-c2c[nH]c3ccccc23)n1-c1ccc(Cl)cc1	5	1
30	CC(O)C1CCN(C(=O)C2(Cc3ccccc3)CCC2)CC1 (stereo not drawn)	-1&10	-1&11
31	CCc1cccc2c(C(CC(=O)N3CCC4(CC3)OCCO4)c3cccc(F)c3)c[nH]c12 (stereo not drawn)	35	32
32	N=C1C(c2nc3ccccc3s2)C(=O)CN1N=C1C(=O)Nc2ccc([N+](=O)[O-])cc21 (stereo not drawn)	6	7
33	Cc1ccc(C(=O)Nc2cc(Cl)ccc2N2CCOCC2)o1	-10	-10
34	CCOC(=O)N1CCN(C(=O)c2ccc(C#Cc3ccccc3)cc2)CC1	0	2
35	Cc1cc(CC(C)NC(=O)c2sc(C(C)C)nc2C)n[nH]1 (stereo not drawn)	-9	-2
36	CCOC(=O)c1nc2ccccc2nc1N1CCCN(C(=O)c2cncc(Br)c2)CC1	0	3
37	Fc1ccccc1SCCN1CCN(CC2CC2)CC1	6	4
38	CCOC(=O)c1ccc(OC2CC3CCC(C2)N3C(=O)c2ccc(CSc3ccc(OC)c(OC)c3)cc2)cc1 (stereo not drawn)	9	20
39	CC(C)(C)c1cc(OC(=O)C2CC2)ccc1O	9	12
40	COc1cc(C=CC(=O)N2CCN(C(=O)Cc3ccccc3)CC2)ccc1OCc1ccccc1	-11	-6
41	N#CC(c1nc2ccccc2nc1N1CCNCC1)S(=O)(=O)c1cc(Cl)ccc1Cl (stereo not drawn)	4	1
42	CCc1c(C)nc(-n2nc(C)cc2NC(=O)Cc2ccc(OC)cc2)[nH]c1=O	5	8
43	Cc1ccc(C(=O)C2C(c3ccc(Cl)cc3)NC(=O)NC2(O)C(F)(F)F)cc1 (stereo not drawn)	10	2
44	N#C/C(=N\Nc1ccccc1)c1nc(-c2ccc(Cl)cc2)cs1	0	4
45	COc1ccc(OC)c(CNC(=O)CCN2CCCCO2)c1	-10	-1
46	Cc1ccc(C(C)NC(=O)Nc2ccccc2C(C)C)o1 (stereo not drawn)	1	4
47	N#Cc1ccc(/C=C2/SC(=Nc3ccccc3)NC2=O)cc1	-24	-13
48	CCOc1ccc(-n2c(C(CC)N(CCCOC)C(=O)c3ccc(C(F)(F)F)cc3)nc3ccccc3c2=O)cc1 (stereo not drawn)	15	13

# 23 entries from above in another layout:
# Below each compound – NPYLR7 agonist max-min	NPYLR7 agonist
(8) COc1ccc(-c2nnc(SCc3ccc(OC)c(F)c3)o2)c(OC)c1
 : 26	1
(9) CCCCOc1ccccc1C1C(C(=O)OC)=C(C)NC2=C1C(=O)CCC2 (stereo not drawn)
 : -8	-6
(10) COc1cc(CNC(=O)c2ccc(-c3cc(-c4ccc(Cl)cc4Cl)[nH]n3)cc2)cc(OC)c1
 : 0	6
(11) Cc1noc(NS(=O)(=O)c2c(C)sc3ccc(Cl)cc23)c1C
 : 12	12
(12) O=C1NC(=S)N/C1=C/c1ccc(-c2ccccc2C(=O)O)o1
 : 14	3
(13) COc1cccc(CNC(=O)C(C)N2CCCCCC2)n1 (stereo not drawn)
 : 1&7	5&9
(14) O=C(c1ccc(F)c(O)c1)N1CCCn2nc(C(=O)N3CCCC3)cc2C1
 : 5	8
(15) CC(C)(CNC(=O)c1cc2c(s1)CCCCCC2)N1CCOCC1
 : -3	-5
(16) O=C(c1cn(Cc2cccnc2)nn1)N1CCC2CCCCC21 (stereo not drawn)
 : -3	-1
(17) COC(=O)CCCCCCC(=O)N1CC(=O)N2CCc3ccc(F)cc3C2C1 (stereo not drawn)
 : 6	21
(18) COCc1nc(N2CCOc3ccc(Cl)cc3C2)c2cnn(C)c2n1
 : -1	1
(19) O=C(CCc1csc(NC(=O)c2ccc[nH]c2=O)n1)NCc1cccs1
 : -24	-14
(20) Cc1nnc(SCc2cc(=O)n3[nH]cnc3n2)s1
 : -3&23	0&11
(21) CSc1nc(N)cc(N)n1
 : -4	-1
(22) O=C(NCCc1nnc2ccc(SCC(=O)N3CCCCCC3)nn12)c1ccccc1
 : -17	-16
(23) COc1ccc(C(=O)NC2CCN(c3ccccc3C(=O)N3CCCC3)CC2)cc1OC
 : 2	2
(24) CCCCCN(CC(=O)N1CCc2sccc2C1c1ccc(Cl)cc1Cl)C(=O)c1ccc(F)cc1 (stereo not drawn)
 : 22	13
(25) CCCC(C)c1nc(N2CCN(S(=O)(=O)Cc3ccccc3)CC2)c2cnn(-c3ccccc3)c2n1 (stereo not drawn)
 : 8	2
(26) CCS(=O)(=O)c1ccc2oc(-c3cccc(NC(=O)Nc4cccc(Cl)c4)c3)nc2c1
 : 17	5
(27) Cc1ncsc1CCCn1ccnc1-c1cccc2nonc12
 : 2	7
(28) COc1ccsc1C(=O)NC1c2ccccc2CC1O (stereo not drawn)
 : -6	-4
(29) S=c1n(CN2CCOCC2)nc(-c2c[nH]c3ccccc23)n1-c1ccc(Cl)cc1
 : 5	1
(30) CC(O)C1CCN(C(=O)C2(Cc3ccccc3)CCC2)CC1 (stereo not drawn)
 : -1&10	-1&11

# Going on with the list:
No.	structure	NPYLR7 agonist max-min	NPYLR7 agonist
49	Cc1cc(Cl)ccc1NC(=O)CCCN1C(=O)NC2(CCCC2)C1=O	-9	-5
50	O=C(Cc1ccc(F)cc1)NCCCn1nc(-c2ccc(F)cc2)ccc1=O	-5	-4
51	CCN(CC)C(=O)Oc1ccc2c(ccn2Cc2ccc(OC(F)(F)F)c(Cl)c2)c1-c1ccc(C#N)cc1	12	7
52	O=C(NC(Cc1ccccc1)C(=O)Nc1nnc(-c2cccc(Cl)c2)s1)c1cccc([N+](=O)[O-])c1 (stereo not drawn)	25	24
53	Cc1ccc(-c2nc3ccccn3c2NC(=O)CCCCl)cc1	4	-3
54	CCOc1ccc2cc(-c3csc(Nc4ccccc4F)n3)c(=O)oc2c1	-5	-2
55	COc1ccc(-n2ncc3c2CC(C)(C)CC3NC(=O)CSc2nnc(C)o2)cc1 (stereo not drawn)	2	5
56	Cc1nnc(-c2cc3ccccc3n2Cc2ccccc2C)o1	-6	-7
57	CC(C)c1c(-c2ccccc2)ncn1CC(=O)N1CCNCC1	12	0
58	O=C(O)c1ccc(-n2c(C3C4CCCCC43)n[nH]c2=S)cc1 (stereo not drawn)	-13	-8
59	Cn1ncc2c1ncn1c(COc3ccc(Cl)cc3)nnc21	4	15
60	COc1ccccc1C(=O)Nc1nnc(-c2ccc(C(C)(C)C)cc2)s1	-11	-9
61	COc1ccc2nc(-c3cccc(NS(=O)(=O)c4ccc(C(C)=O)cc4)c3)cn2n1	-9	-6
62	CCC(NC(=O)CSCc1ccc(C#N)cc1)c1cnn(CC)c1 (stereo not drawn)	3	7
63	O=C(NCCN1CCCC1)c1nn(-c2ccccc2)c(=O)n(Cc2ccccc2F)c1=O	11	9
64	COc1cccc(-c2cc(-c3ccc(C(=O)NCc4cccs4)cc3)[nH]n2)c1	-15	-2
65	Cn1cc(/C=C/C(=O)Nc2ccccc2N2CCc3ccccc3C2)cn1	4	4
66	Cc1nn(C)c(C)c1CN(CC1CCCC1)C1CC1	4	6
67	CCCn1c(C(=O)Nc2ccc(F)c(Cl)c2)cc2c(=O)n(C)c(=O)n(C)c21	-1	0
68	CC(C)CCn1c(CN2CC(C)OC(C)C2)nc2c1c(=O)n(C)c(=O)n2C (stereo not drawn)	9	13
69	NCc1cc(-c2cc3ccccc3o2)on1	-7	-5
70	CN(CC(=O)Nc1ccc(Cl)c(C(F)(F)F)c1)Cc1ncc(-c2ccc(F)cc2)o1	14	10
71	COc1cc(C)c(NC(=O)COc2cc(C)on2)cc1OC	-4	-2
72	CC(C)(C)c1[nH]nc2c1C(c1ccccc1[N+](=O)[O-])C(C#N)C(=N)O2 (stereo not drawn)	-9	-4
73	COc1ccccc1C(NC(=O)C1CCN(CCOc2ccc(Br)cc2)CC1)c1ccccn1 (stereo not drawn)	4	5
74	O=C(NC1CC1)C(C1CCCC1)N1CCN(C(=O)C2CC2)CC1 (stereo not drawn)	-3	-4
75	CC(NC(=O)CNc1ccccc1OC(F)F)c1cccs1 (stereo not drawn)	2	4
76	Cn1cc(C(=O)NCc2ccc(F)cc2)c2[nH]c(=O)n(-c3ccc(Cl)cc3)c(=O)c21	2	2
77	CCOCCOc1nc(-c2cccc(C(F)(F)F)c2)n(-c2ccc(NC(=O)COCc3ccccc3)cc2)n1	17	12
78	CC1OC2Cc3ccccc3C2N(Cc2ccc3ccccc3c2)C1=O (stereo not drawn)	-4	-1
79	O=C(Nc1ccc2c(c1)OCO2)c1cc(-c2cccs2)nc2ccccc12	-9	-6
80	Cc1ccccc1-c1nc(-c2ccc(S(=O)(=O)N3CCOCC3)cc2)cs1	9	6
81	Cc1sc2nc(-c3cccs3)nc(NCCCN3CCOCC3)c2c1C	12	6
82	CCCCOCCCNC(=O)COc1ccc2c3c(c(=O)oc2c1)CCC3	11	11
83	CCCCC(O)CN(CCOC)Cc1c(-c2ccccc2)nn(C)c1Oc1ccc(F)cc1 (stereo not drawn)	5	5
84	O=C(NCc1ccncc1)c1csc(CSc2nnc(-c3cccnc3)n2-c2cccc(C(F)(F)F)c2)n1	4	-9
85	Cc1nnsc1CN(C)C(=O)c1n[nH]c2c1CCC2	1	2
86	O=c1c(Cl)cc(C(F)(F)F)cn1Cc1nc2ccccc2o1	-2	0
87	CN(C)C(=S)NC1CCCCC1	-14	-10
88	CCCc1nc(N2CCN(S(=O)(=O)c3ccc(Cl)c([N+](=O)[O-])c3)CC2)c2c3c(sc2n1)CN(CC)CC3	-1	0
89	Cn1ccnc1C(=O)N1CCOC(COCc2cccc(C(F)(F)F)c2)C1 (stereo not drawn)	17	21
90	C=CCC(O)(CC=C)c1ccc(CN(CCCOC)Cc2ccc(OC)cc2)o1	12	6
91	CC(=O)NCCCSCC(=O)N1CCCC2CCCCC21 (stereo not drawn)	638	9
92	Cc1ncc2c(n1)CCC(NC(=O)CCC1CCCCC1)C2 (stereo not drawn)	8&-1	15&0
